# CBX7 AlphaScr: blocks human CBX7 binding to H3K27me3 peptide. O95931. normalised signal (fraction of DMSO) (no concentration beside the values). 66,000 tested, 1.1% active. AlphaScreen His6-CBX7 / biotin-H3K27me3 peptide binding; hits give low values; in the data active = normalised signal below about 0.5;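 also: 100 nL library stock added to about 20 µL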
# Target sequence (O95931 whole entry, looked up): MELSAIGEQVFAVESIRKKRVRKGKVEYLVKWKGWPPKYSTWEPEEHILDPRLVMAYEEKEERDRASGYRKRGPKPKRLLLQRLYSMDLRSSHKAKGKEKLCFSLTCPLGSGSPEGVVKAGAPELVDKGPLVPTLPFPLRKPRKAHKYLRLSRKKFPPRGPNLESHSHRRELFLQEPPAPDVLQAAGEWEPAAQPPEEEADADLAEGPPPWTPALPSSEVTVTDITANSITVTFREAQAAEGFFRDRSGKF
# CBX7 AlphaScr z-score: recorded beside CBX7 AlphaScr, whose call it bears; z-score; measured here: z-score of CBX7 signal; some inactives read as strong as hits; reference of the scale not given here;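 same signal on another scale; lower means less binding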
# An asterisk follows results filed as active.
# Values run as follows: CBX7 AlphaScr	CBX7 AlphaScr z-score
O=C(Cn1c(-c2ccccc2F)nc2ccccc2c1=O)Nc1ccc(F)cc1F
 : 0.994	-0.17
Cc1nc2cc(C(=O)N3CCCCC3)ccc2n1-c1ccc(F)cc1F
 : 0.937	-1.67
COc1cccc(-c2cc(C(=O)N3CCN(c4ncccn4)CC3)c3ccccc3n2)c1
 : 0.972	-0.275
O=C1CC(c2ccc(Cl)cc2)c2cc3c(cc2N1)OCO3 (configuration not stated)
 : 0.821	-4.45
CCCN(CCC)S(=O)(=O)c1ccc2c(c1)N(CC(=O)NC(C)c1ccccc1)C(=O)CS2 (configuration not stated)
 : 1.07	2.23
O=C(Nc1ccc(S(=O)(=O)Nc2nccs2)cc1)c1ccccc1Br
 : 1.04	1.5
O=C(CCn1c(=O)c2sccc2n(Cc2ccccc2F)c1=O)NCc1ccccc1
 : 0.931	-1.48
C=CCN(c1ccccc1)S(=O)(=O)c1ccc2[nH]cc(C(=O)NCC3CCCO3)c(=O)c2c1 (configuration not stated)
 : 1	0.0384
Cc1ccccc1NC(=O)CSc1nnc(Cc2cc(=O)[nH]c(=O)[nH]2)n1-c1ccccc1
 : 1.01	0.238
CCc1cc2c(=O)c(-c3cscn3)coc2cc1OC(C)=O
 : 1.03	0.732
Cc1ccc(C2CC(=O)c3cnc(NCCN4CCOCC4)nc3C2)cc1 (configuration not stated)
 : 1.13	1.52
CCc1nc(SCC(=O)Nc2nnc(C)s2)n[nH]1
 : 0.922	-1
COc1ccc(-c2nn(C)c3sc(C(=O)Nc4ccccc4C)cc23)cc1OC
 : 0.898	-1.31
COc1ccc(-c2noc(-c3cccc(Br)c3)n2)cc1OC
 : 1.03	0.884
O=C(Nc1cccc(Cl)c1)c1cc(-c2ccc(Cl)cc2)on1
 : 1.11	0.145
O=C(CSc1ccc2nnc(-c3ccccc3)n2n1)Nc1cccc(Cl)c1
 : 1.05	0.648
O=C(c1cnn(-c2ccccc2)c1-n1cccc1)N1CCCCC1
 : 1	0.133
Cc1ccc(Cn2c(=O)c3cccnc3n(CC(=O)Nc3cc(Cl)ccc3C)c2=O)cc1
 : 0.999	-0.0156
O=C(Cc1ccc(-n2c(=O)[nH]c3ccccc3c2=O)cc1)N1CCN(c2cccc(Cl)c2)CC1
 : 0.875	-2.46
Cc1ccc(C)c(NS(=O)(=O)c2ccc3c(c2)CCN3C(=O)C2CCC2)c1
 : 0.942	-2.01
CCOC(=O)c1ccc(NC(=O)CCc2c(C)nc3cc(-c4ccccc4OC)nn3c2C)cc1
 : 1.03	1.15
COc1nnc(-c2ccc(C)c(S(=O)(=O)NCC3CCCO3)c2)c2ccccc12 (configuration not stated)
 : 0.982	-0.41
CCn1cc(C(=O)Nc2ccccc2C(=O)OC)c(=O)c2ccc(C)nc21
 : 1.05	0.507
Cc1[nH]c2c(C)ccc(F)c2c1CCNC(=O)c1ccc(Br)cc1
 : 0.683	-5.47
O=C(CC1CCCCC1)Nc1c2c(nn1-c1ccc(F)cc1)CS(=O)(=O)C2
 : 0.971	-0.332
Cc1cccc(OCC(=O)Nc2c(C(=O)c3ccc(Br)cc3)oc3ccccc23)c1
 : 1.09	0.406
Cc1ccc(NC(=O)c2cc(-c3ccc(Cl)cc3)on2)cc1
 : 1.1	0.134
COc1ccc(Cl)cc1NC(=O)c1cc(C2CC2)on1
 : 1.1	3.12
COc1ccc(-n2c3c(cc(C(=O)N4CCN(C)CC4)c2=O)C(=O)CC(C)(C)C3)cc1
 : 0.998	-0.00668
COc1ccc(Cl)cc1N(C)C(=O)CCc1nc(-c2ccccc2F)no1
 : 1.11	1.73
COc1ccc(Cl)cc1NC(=O)c1cc2c(s1)-c1ccccc1OC2
 : 1.44	12.5
CN1CCN(CCCNC(=O)CC(C(=O)N2CCc3ccccc32)n2ccnc2)CC1 (configuration not stated)
 : 0.98	-0.51
CCOc1ccc(NC(=O)c2cccnc2)cc1
 : 0.91	-1.27
CCC(C(=O)NCCc1ccccc1)n1ncc2ccccc21 (configuration not stated)
 : 1.09	2.22
CC(=O)N1CCc2cc(S(=O)(=O)NCCN3CCC(Cc4ccccc4)CC3)ccc21
 : 1.11	0.779
COc1ccccc1N1C(=O)c2ccc(C(=O)Nc3cc(C(=O)O)ccc3C)cc2C1=O
 : 0.979	-0.607
Cc1cc(C)cc(NC(=O)CSc2nnc(COc3ccccc3Cl)o2)c1
 : 1.01	0.105
Cc1nn(C)c(C)c1S(=O)(=O)N(CC(=O)N1CCc2ccccc2C1)c1ccc(C(C)C)cc1
 : 0.97	-0.58
O=C(Cn1cnc2sc3c(c2c1=O)CCC3)Nc1ccccc1C(F)(F)F
 : 1.02	0.608
O=C(Nc1ncc(S(=O)(=O)c2ccc([N+](=O)[O-])cc2)s1)c1ccc2ccccc2c1
 : 1.01	0.221
COc1cccc(Nc2nnc(Cc3ccncc3)c3ccccc23)c1
 : 0.962	-0.829
CC(C)Cn1c(CCNC(=O)c2ccc(F)cc2)nc2ccccc21
 : 0.887	-1.73
COc1ccc(C2CC(=O)N(CC(=O)Nc3ccccc3F)c3ccccc3S2)cc1OC (configuration not stated)
 : 0.998	-0.0286
CCN(CC)C(=O)c1ccccc1NC(=O)c1cccc(S(=O)(=O)N2CCC(C)CC2)c1
 : 1.07	1.06
O=C(Nc1ccc(-c2csc(-c3ccccc3)n2)cc1)c1cccnc1
 : 0.989	-0.03
O=C(NC1CCCC1)C1CCN(c2nc3ccc(Br)cc3s2)CC1
 : 0.999	-0.0252
COc1ccc(-c2cc(C(F)(F)F)n3nc(C(=O)Nc4cccc(Cl)c4Cl)c(Cl)c3n2)cc1OC
 : 0.878	-1.57
CC1CCCN(CCCNC(=O)c2cc3c(s2)-c2ccccc2OC3)C1 (configuration not stated)
 : 1.6	8.41
O=C(NCC1COc2ccccc2O1)C1(S(=O)(=O)c2ccc(Cl)cc2)CC1 (configuration not stated)
 : 1.01	0.23
CC1=Nc2cc(C(=O)NCc3ccccc3Cl)ccc2Sc2c(C)ccc(C)c21
 : 0.86	-2.14

# The results go on.
# Values run as follows: CBX7 AlphaScr	CBX7 AlphaScr z-score
CC1CCN(S(=O)(=O)c2ccc3c(c2)CCN3C(=O)CCC(=O)O)CC1
 : 0.887	-1.86
c1ccc(Nc2c(-c3ccccc3)nc3sccn23)cc1
 : 0.995	-0.0992
O=C(Nc1ccc(F)cc1)Nc1nnc(-c2ccccc2)o1
 : 0.825	-4.69
COc1ccc(-n2c(Cc3cc(=O)[nH]c(=O)[nH]3)nnc2SCc2cccc(C)c2)cc1
 : 1.02	0.293
Cc1cc(N2CCC(C)CC2)nc2ccc(NC(=O)C3CCCO3)cc12 (configuration not stated)
 : 0.825	-1.9
CCN(CC)CCNC(=O)CN1C(=O)CSc2ccc(S(=O)(=O)N3CCCCC3)cc21
 : 1.02	1.14
Cc1ccc(NC(=O)c2sc3ncn(Cc4ccccc4F)c(=O)c3c2C)c(Br)c1
 : 1.1	0.689
CCc1cc(-c2n[nH]c(C)c2Oc2ccccc2)c(O)cc1OC(C)C
 : 0.738	-4.07
CCOC(=O)N1CCC(Nc2c(N3CCC(C(N)=O)CC3)c(=O)c2=O)CC1
 : 1.03	0.455
COc1cc(Cl)c(C)cc1NS(=O)(=O)c1ccc2c(c1)CCC(=O)N2
 : 0.966	-1.55
COc1ccc(NC(=O)c2cc3c(-c4ccc(Cl)cc4)nn(C)c3s2)c(OC)c1
 : 0.987	-0.256
COc1cc(C(=O)NCc2nnc(SCC(=O)NCCc3ccccc3)o2)cc(OC)c1OC
 : 1.11	1.7
Cc1ccc(-c2nnc(Nc3ccccc3)c3ccccc23)cc1S(N)(=O)=O
 : 0.948	-0.343
COc1ccc(NC(=O)c2ccc(Nc3cc(C)nc4ncnn34)cc2)cc1
 : 1.06	0.615
CCOC(=O)c1c(NC(=O)c2cc(OC)cc(OC)c2)sc2c1CCCCC2
 : 1.38	2.92
Cc1cc(NCc2ccc3c(c2)OCO3)n2nc(C)nc2n1
 : 0.922	-1.7
COc1ccc(NC(=O)c2cnn(-c3ccc(C)cc3)c2C2CCN(C(=O)OC(C)(C)C)CC2)cc1
 : 0.996	-0.123
Cc1ccc(S(=O)(=O)C2(C(=O)Nc3cccc(C)c3)CC2)cc1
 : 1.03	0.942
Cc1ccc(S(=O)(=O)C2(C(=O)Nc3cc(Cl)ccc3C)CC2)cc1
 : 1.03	0.549
O=C(Nc1ccc(Oc2ccccc2)cc1)c1nn(-c2ccc(Cl)cc2)c(=O)c2ccccc12
 : 0.959	-0.975
CC(NC(=O)CCn1nc(-c2ccccc2)ccc1=O)c1ccccc1 (configuration not stated)
 : 1.04	1.32
COc1ccc(NC(=O)c2sc3ncn(CC(=O)N4CCCCC4)c(=O)c3c2C)cc1Cl
 : 1.03	0.2
CC1CCc2oc3ccc(NS(=O)(=O)c4cc(Cl)ccc4Cl)cc3c2C1 (configuration not stated)
 : 0.92	-1
COc1ccccc1NC(=O)c1cc(Nc2ccc(F)c(F)c2)nc2ccccc12
 : 1.23	3.65
Cc1ccc(Nc2ncc(C(=O)NC(C)C)c3ccccc23)cc1Cl
 : 1.17	4.9
O=C(Nc1nc(N2C(=O)c3ccccc3C2=O)n(-c2ccccc2)n1)c1ccc(F)cc1
 : 0.0902*	-9.76*
CC(=O)N1CCC(N(C(=O)Nc2ccc(F)cc2)C2CCCC2)CC1
 : 0.781	-0.865
O=C(Nc1c2c(nn1-c1cccc(Cl)c1)CS(=O)(=O)C2)c1cccs1
 : 1.07	0.455
CCOC(=O)N1CCN(c2c(Nc3ccc4c(c3)OCCO4)c(=O)c2=O)CC1
 : 1.16	2.81
CCC(=O)N(CCC1(c2ccc(F)cc2)CCOC(C)(C)C1)Cc1ccc(OC)c(OC)c1 (configuration not stated)
 : 0.982	-0.511
O=C(Nc1ccc2c(c1)OCCO2)C(c1ccccc1)N(Cc1ccccc1)Cc1ccccc1 (configuration not stated)
 : 0.93	-0.703
CCc1ccc(NC(=O)Cn2cnc3sc(C)c(S(=O)(=O)N4CC(C)CC(C)C4)c3c2=O)cc1 (configuration not stated)
 : 0.954	-0.857
COc1ccc(-c2noc(CN3CCC(Cc4ccccc4)CC3)n2)cc1
 : 1.09	1.86
CC(C)c1ccc(NC(=O)Cc2cn(C)c3ccccc23)cc1
 : 0.677	-6.87
CCN(CC)CCCNC(=O)Cn1nc(-c2ccccc2)c2cc(Cl)ccc21
 : 1.04	1.4
COC(=O)Cc1nc(NCc2ccccc2OC)c2c3c(sc2n1)CCCC3
 : 0.584	-0.414
CCOc1ccccc1N(CC)C(=O)c1cc2c(s1)-c1ccccc1OC2
 : 0.645	-4.97
O=C1CN(C(=O)c2cccc(C(F)(F)F)c2)C(c2ccccc2)c2cc(F)ccc2N1 (configuration not stated)
 : 0.962	-1.09
Clc1ccc(-c2[nH]c(-c3ccc(Br)cc3)nc2-c2ccccc2)cc1
 : 0.743	-6.8
CCOC(=O)c1cnc2ccc(OCC)cc2c1Nc1ccccc1CC
 : 0.939	-0.777

# Compound profiles, from the list above. Order of screens: CBX7 AlphaScr	CBX7 AlphaScr z-score
# Listed for CC(C)c1ccc(NC(=O)Cc2cn(C)c3ccccc23)cc1 : 0.677	-6.87
# Listed for O=C(Nc1ccc2c(c1)OCCO2)C(c1ccccc1)N(Cc1ccccc1)Cc1ccccc1 (configuration not stated) : 0.93	-0.703
# Listed for O=C1CN(C(=O)c2cccc(C(F)(F)F)c2)C(c2ccccc2)c2cc(F)ccc2N1 (configuration not stated) : 0.962	-1.09
# Listed for COc1ccc(-c2noc(CN3CCC(Cc4ccccc4)CC3)n2)cc1 : 1.09	1.86

# New compounds follow.
# Values run as follows: CBX7 AlphaScr	CBX7 AlphaScr z-score
COc1ccc(CNC(=O)Cc2c(C)n(C(=O)c3ccc(Cl)cc3)c3ccc(OC)cc23)cc1
 : 0.947	-1.26
Cc1nc2cc(-c3cccc(F)c3)nn2c(C)c1CCC(=O)Nc1cccnc1
 : 1.04	1.52
COc1ccc(NC(=O)CSc2nnc(Cc3cccn3C)n2-c2ccc(C)cc2)cc1
 : 0.841	-3.79
O=C(Nc1c2c(nn1-c1ccc(Oc3ccccc3)cc1)CSC2)c1ccccc1C(F)(F)F
 : 0.968	-0.0323
COc1ccc(C2(C(=O)Nc3ccc(C)cc3)CCCC2)cc1OC
 : 0.945	-0.65
Cc1cccc(N2CCN(C(=O)c3cnn4c(C)c(Cc5ccccc5Cl)c(C)nc34)CC2C)c1 (configuration not stated)
 : 0.848	-4.19
CCC1Sc2ccccc2N(CC(=O)NCCc2ccc(Cl)cc2)C1=O (configuration not stated)
 : 1.04	1.46
COc1cccc(N2C(=O)CC(N3CCN(c4ccc(Cl)cc4)CC3)C2=O)c1 (configuration not stated)
 : 1.16	2.45
COCCCNC(=O)c1cc(Nc2cc(OC)ccc2OC)nc2ccccc12
 : 0.922	-1.21
O=C(NCC1CCCO1)c1cc2c(s1)CS(=O)(=O)C2 (configuration not stated)
 : 1.02	0.694
Cc1cc(C)n(-c2nc3ccccc3nc2Nc2cccc(C)c2C)n1
 : 2.52	54.2
CCC1=Nc2cc(C(=O)NCc3ccc(OC)cc3)ccc2Sc2ccc(C)cc21
 : 0.758	-3.47
COc1ccc(CN(CCC2(c3ccccc3)CCOC(C)(C)C2)C(C)=O)cc1OC (configuration not stated)
 : 0.961	-0.245
CN1CCN(C(=O)c2ccc3c(c2)N(Cc2ccc(F)cc2)C(=O)c2ccccc2S3=O)CC1 (configuration not stated)
 : 1.01	0.29
Fc1ccccc1CSc1nc2ccncc2n1Cc1ccccc1Cl
 : 0.98	-0.672
CC(C)Cn1c(CNC(=O)c2ccccc2)nc2ccccc21
 : 0.801	-2.29

# 4 entries from above, field by field:
Cc1cc(C)n(-c2nc3ccccc3nc2Nc2cccc(C)c2C)n1
  CBX7 AlphaScr: 2.52	CBX7 AlphaScr z-score: 54.2

CCC1=Nc2cc(C(=O)NCc3ccc(OC)cc3)ccc2Sc2ccc(C)cc21
  CBX7 AlphaScr: 0.758	CBX7 AlphaScr z-score: -3.47

COc1ccc(CN(CCC2(c3ccccc3)CCOC(C)(C)C2)C(C)=O)cc1OC (configuration not stated)
  CBX7 AlphaScr: 0.961	CBX7 AlphaScr z-score: -0.245

CN1CCN(C(=O)c2ccc3c(c2)N(Cc2ccc(F)cc2)C(=O)c2ccccc2S3=O)CC1 (configuration not stated)
  CBX7 AlphaScr: 1.01	CBX7 AlphaScr z-score: 0.29

# Source: PubChem BioAssay (several laboratories)

# An excerpt; the hit share may differ from the screen's.
